High-throughput results deposited in PubChem BioAssay by Broad Institute.
Vaccinia stage: blocks a specific stage of Vaccinia orthopoxvirus infection. Vaccinia-infected cells, mCherry/Venus stage reporter fluorescence; hits give low values; some inactives read as strong as hits. activity change (mCherry), % (no concentration beside the values). 89,000 compounds, 0.01% hits;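 active means mCherry past -33% and 40 or more points under the early reporter, replicates agreeing; inconclusive means past -33% without that gap or agreement; tested in A549 cells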;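 further: scaled between vehicle wells and reference inhibitor wells; 23 nL library stock went into each well; one replicate is shown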
Vaccinia stage Venus: recorded beside Vaccinia stage, whose call it bears; activity change (Venus), %; measured here: Venus reporter, other viral stage;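 negative = less Venus signal; first of two replicates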
The depositor's hits bear a star; u = inconclusive; x = not tested or not shown.

SMILES	Vaccinia stage	Vaccinia stage Venus
O=C(Nc1ccccc1)N[C@H]1CC[C@H](CCn2cc(C3(O)CCCC3)nn2)O[C@@H]1CO	7	20
Cc1ccc(S(=O)(=O)N2CC[C@@H]3[C@H]2c2cc(C4=CCCCC4)ccc2N(C)[C@H]3CO)cc1	6	5
O=C(Cc1ccncc1)N[C@H]1CC[C@H](CCn2cc(-c3ccccc3F)nn2)O[C@H]1CO	-7	-8
CC(C)NC(=O)N(C)C[C@H]1Oc2ncc(-c3ccccc3F)cc2C(=O)N([C@@H](C)CO)C[C@@H]1C	1	-3
Cc1ccc(S(=O)(=O)Nc2ccc3c(c2)C(=O)N([C@H](C)CO)C[C@H](C)[C@H](CN(C)S(=O)(=O)c2cn(C)cn2)O3)cc1	6	11
Cc1ccc(S(=O)(=O)N(C)C[C@H]2OCCCC[C@H](C)Oc3ccc(NC(=O)Nc4ccccc4)cc3C(=O)N([C@H](C)CO)C[C@@H]2C)cc1	-15	6
O=C(CC1CC1)N1[C@H](CO)[C@@H](c2ccccc2)C12CN(Cc1cc(F)ccc1F)C2	-15	-7
Cc1ccc(S(=O)(=O)N[C@@H]2CC[C@@H](CC(=O)NCCCN(C)C)O[C@@H]2CO)cc1	14	4
Cc1ccc(S(=O)(=O)N(C)C[C@@H]2Oc3ccc(NC(=O)NC(C)C)cc3CC(=O)N([C@H](C)CO)C[C@H]2C)cc1	1	1
CC=Cc1ccc2n(c1=O)C[C@H]1[C@H](CO)[C@@H](C(=O)NCCc3cn(C)cn3)[C@@H]2N1C(=O)CC1CC1 (mixture of isomers)	28	19
C[C@@H]1CN([C@H](C)CO)C(=O)c2cccc(NC(=O)C3CCOCC3)c2O[C@@H]1CN(C)Cc1ccc(C(=O)O)cc1	12	6
C[C@@H]1CCCCO[C@H](CN(C)Cc2ccc(C(=O)O)cc2)[C@H](C)CN([C@H](C)CO)C(=O)c2cc(NC(=O)Nc3ccccc3)ccc2O1	12	1
Cc1ccc(S(=O)(=O)Nc2ccc3c(c2)C(=O)N([C@H](C)CO)C[C@@H](C)[C@@H](CN(C)S(=O)(=O)c2c(C)noc2C)OCCCC[C@H](C)O3)cc1	u	x
C[C@H]1CN([C@@H](C)CO)C(=O)c2cccc(NC(=O)c3ccncc3)c2O[C@H]1CN(C)S(C)(=O)=O	16	9
COc1ccc(S(=O)(=O)N(C)C[C@@H]2OCCCC[C@@H](C)Oc3ccc(NC(=O)Nc4c(C)noc4C)cc3C(=O)N([C@H](C)CO)C[C@H]2C)cc1	5	-2
CCc1cnc(N2[C@H](CO)[C@@H](c3ccc(C#CC(C)C)cc3)[C@@H]2C#N)s1	-17	-10
CN(C)C(=O)C[C@H]1C=C[C@H](NC(=O)c2ccc(F)cc2)[C@H](CO)O1	8	7
C=CCOC(=O)C(=O)/C=C/c1ccc(OC)cc1	4	3
CNC[C@H]1OCCCC[C@H](C)Oc2ccc(NS(C)(=O)=O)cc2C(=O)N([C@H](C)CO)C[C@H]1C	19	11
C[C@@H]1CN([C@@H](C)CO)C(=O)Cc2cc(NC(=O)Cc3cn(C)c4ccccc34)ccc2O[C@@H]1CN(C)C(=O)Nc1ccc(C(F)(F)F)cc1	-3	7
C[C@H](CO)N1C[C@H](C)[C@@H](CN(C)C(=O)Nc2cccc3ccccc23)Oc2c(NS(=O)(=O)c3ccc(F)cc3)cccc2C1=O	12	9
O=S(=O)(c1ccccc1)N1C[C@@H]2[C@H](c3ccccc31)[C@H](CO)N2Cc1ccccn1	-5	7
O=C(Cc1ccccc1)N[C@H]1C=C[C@@H](CC(=O)N2CCOCC2)O[C@@H]1CO	5	5
COC(=O)C[C@@H]1CC[C@@H]2[C@@H](COc3ccc(NC(=O)Nc4ccccc4C)cc3C(=O)N2C)O1	-2	3
COc1ccc(S(=O)(=O)Nc2ccc3c(c2)CC(=O)N([C@@H](C)CO)C[C@H](C)[C@@H](CN(C)Cc2ccncc2)O3)cc1	8	3
CO[C@H]1CN(C)C(=O)c2cc(NC(C)=O)ccc2OC[C@H](C)N(Cc2ccccc2F)C[C@H]1C	-12	-2
CC(C)C(=O)Nc1ccc2c(c1)C(=O)N(C)[C@@H]1CC[C@@H](CC(=O)NCC3CC3)O[C@H]1CO2	13	11
CO[C@H]1CN(C)C(=O)c2cc(C#N)ccc2OC[C@@H]2O[C@@H](CC[C@H]2OC)CCN(C)C(=O)[C@@H]1C	6	5
O=C(NCc1ccccc1)[C@]1(CCS(=O)(=O)c2ccccc2)N=C(c2ccc(OCCCO)cc2)O[C@@H]1c1ccccc1	-29	-17
O=C(Cc1cccnc1)N1CCCCN2[C@@H](CO)[C@@H](c3ccc(C#CC4CCCC4)cc3)[C@@H]2C1	u	x
C[C@@H]1CN([C@H](C)CO)C(=O)CCCn2nncc2CO[C@@H]1CN(C)Cc1cccc(C(F)(F)F)c1	u	x
CNC[C@H]1Oc2cc(C#Cc3ccccc3OC)ccc2S(=O)(=O)N([C@@H](C)CO)C[C@@H]1C	u	x
C[C@H](CO)N1C[C@H](C)[C@H](CN(C)C(=O)Nc2ccc(F)cc2)Oc2ccc(NC(=O)c3ccncc3)cc2C1=O	-3	-2
COCC#Cc1cnc2c(c1)C(=O)N([C@H](C)CO)C[C@@H](C)[C@H](CN(C)C(=O)C1CC1)O2	21	5
CCCN1[C@@H]2Cn3c(cccc3=O)[C@H]1[C@@H](C(=O)Nc1ccccc1)[C@@H]2CO	11	18
C[C@@H]1CN([C@@H](C)CO)C(=O)c2cc(C#CCN(C)C)cnc2O[C@@H]1CN(C)S(=O)(=O)c1cn(C)cn1	20	5

In another format: 11 of the compounds above.
Structure,Vaccinia stage,Vaccinia stage Venus
CO[C@H]1CN(C)C(=O)c2cc(NC(C)=O)ccc2OC[C@H](C)N(Cc2ccccc2F)C[C@H]1C,-12,-2
CC(C)C(=O)Nc1ccc2c(c1)C(=O)N(C)[C@@H]1CC[C@@H](CC(=O)NCC3CC3)O[C@H]1CO2,13,11
CO[C@H]1CN(C)C(=O)c2cc(C#N)ccc2OC[C@@H]2O[C@@H](CC[C@H]2OC)CCN(C)C(=O)[C@@H]1C,6,5
O=C(NCc1ccccc1)[C@]1(CCS(=O)(=O)c2ccccc2)N=C(c2ccc(OCCCO)cc2)O[C@@H]1c1ccccc1,-29,-17
O=C(Cc1cccnc1)N1CCCCN2[C@@H](CO)[C@@H](c3ccc(C#CC4CCCC4)cc3)[C@@H]2C1,u,x
C[C@@H]1CN([C@H](C)CO)C(=O)CCCn2nncc2CO[C@@H]1CN(C)Cc1cccc(C(F)(F)F)c1,u,x
CNC[C@H]1Oc2cc(C#Cc3ccccc3OC)ccc2S(=O)(=O)N([C@@H](C)CO)C[C@@H]1C,u,x
C[C@H](CO)N1C[C@H](C)[C@H](CN(C)C(=O)Nc2ccc(F)cc2)Oc2ccc(NC(=O)c3ccncc3)cc2C1=O,-3,-2
COCC#Cc1cnc2c(c1)C(=O)N([C@H](C)CO)C[C@@H](C)[C@H](CN(C)C(=O)C1CC1)O2,21,5
CCCN1[C@@H]2Cn3c(cccc3=O)[C@H]1[C@@H](C(=O)Nc1ccccc1)[C@@H]2CO,11,18
C[C@@H]1CN([C@@H](C)CO)C(=O)c2cc(C#CCN(C)C)cnc2O[C@@H]1CN(C)S(=O)(=O)c1cn(C)cn1,20,5

Additional entries
SMILES	Vaccinia stage	Vaccinia stage Venus
C[C@@H]1CCCCO[C@H](CN(C)C(=O)NC2CCCCC2)[C@@H](C)CN([C@H](C)CO)C(=O)c2cc(NC(=O)CCCN(C)C)ccc2O1	7	9
C[C@H]1CN([C@@H](C)CO)C(=O)c2cc(NC(=O)C3CC3)ccc2O[C@H]1CN(C)CC1CCCCC1	-10	-9
O=C(C[C@@H]1C=C[C@H](NC(=O)CC2CC2)[C@@H](CO)O1)NCC(F)(F)F	8	2
COc1ccccc1-c1ccc([C@H]2[C@H](CO)N(C(=O)C3CC3)C23CN(C(C)=O)C3)cc1	5	3
O=C(C1CC1)N1C[C@@H]2[C@H](c3ccccc31)[C@H](CO)N2Cc1ccccc1Cl	0	-3
COCC(=O)N1CC2(C1)CN(Cc1cc(F)ccc1F)[C@H](CO)c1c2c2ccc(OC)cc2n1C	33	12
N#C[C@H]1[C@H](c2ccc(-c3cncnc3)cc2)[C@@H](CO)N1C(=O)C1CCC1	3	6
CCCC#Cc1cnc2c(c1)C(=O)N([C@H](C)CO)C[C@H](C)[C@@H](CN(C)C(=O)NCCC)O2	5	-1
O=C(C[C@H]1C[C@H]2c3cc(NC(=O)c4ccc5c(c4)OCO5)ccc3O[C@H]2[C@H](CO)O1)NCc1ccc(Cl)cc1	5	0
O=C(CCN1CCCCC1)N[C@H]1CC[C@H](CCNS(=O)(=O)c2ccccc2)O[C@H]1CO	7	0
CO[C@@H]1CN(C)C(=O)c2ccc(NC(=O)C3CCCC3)cc2OC[C@@H](C)N(Cc2nccs2)C[C@H]1C	12	5
C[C@H]1CN([C@@H](C)CO)C(=O)c2c(c3ccccc3n2C)-c2ccccc2CO[C@@H]1CN(C)C(=O)Nc1cccc(C(F)(F)F)c1	u	x
COc1ccc(S(=O)(=O)Nc2ccc3c(c2)CC(=O)N([C@H](C)CO)C[C@H](C)[C@@H](CN(C)Cc2ccc(C(F)(F)F)cc2)O3)cc1	u	x
CNC[C@H]1Oc2c(NC(=O)c3cnccn3)cccc2C(=O)N([C@H](C)CO)C[C@H]1C	14	6
Cc1ccc(-c2cnc3c(c2)C(=O)N([C@H](C)CO)C[C@H](C)[C@@H](CN(C)CC2CCOCC2)O3)cc1	16	11
C[C@H](CO)N1C[C@H](C)[C@H](CN(C)CC2CCCCC2)Oc2c(NC(=O)c3ccc(-c4nccs4)cc3)cccc2C1=O	-14	-9
C[C@@H]1CCCCO[C@H](CN(C)S(=O)(=O)c2ccc(Cl)cc2)[C@@H](C)CN([C@H](C)CO)C(=O)c2cc(NC(=O)Cc3ccccc3)ccc2O1	2	1
COc1ccc(NC(=O)N2CC[C@@H]3[C@H]2c2cc(Br)ccc2N(C)[C@H]3CO)cc1	-7	-7
CN(C)C(=O)[C@@H]1[C@@H](CO)[C@@H]2Cn3c(ccc(C4=CCCC4)c3=O)[C@@H]2N1C(=O)Cc1cccnc1	1	2
CN1C(=O)c2cc(NS(C)(=O)=O)ccc2OC[C@@H]2O[C@H](CC(=O)N3CCOCC3)CC[C@@H]21	7	8
C[C@H](CO)N1C[C@H](C)[C@@H](CN(C)C(=O)Nc2ccc(N3CCCCC3)cc2)OCc2cnnn2CCCC1=O	10	6
CN(C)C(=O)C[C@H]1C[C@@H]2c3cc(NS(C)(=O)=O)ccc3O[C@@H]2[C@H](CO)O1	5	4
CN1C(=O)c2cc(NC(=O)NC3CCCC3)ccc2OC[C@@H]2O[C@@H](CC(=O)NC3CCC3)CC[C@H]21	12	7
COc1ccc2c3c(n(C)c2c1)[C@H](CO)N(C(=O)CN1CCOCC1)CC31CCN(C(=O)Nc2cccc(F)c2)CC1	-4	-6
C[C@@H]1CN([C@H](C)CO)C(=O)c2cccc(NC(=O)c3nc4ccccc4s3)c2O[C@H]1CN(C)Cc1ccc(C(=O)O)cc1	7	6
C[C@@H]1CCCCO[C@H](CN(C)Cc2ccncc2)[C@@H](C)CN([C@@H](C)CO)C(=O)c2cc(NC(=O)Nc3cccc4ccccc34)ccc2O1	-19	-17
C[C@H](CO)N1C[C@H](C)[C@@H](CN(C)C(=O)NC2CCCCC2)OCCCC[C@H](C)Oc2ccc(NC(=O)CCC(F)(F)F)cc2C1=O	3	-2
CC(=O)N1[C@@H]2c3ccc(C4=CCCC4)c(=O)n3C[C@@H]2[C@@H](CO)[C@@H]1C(=O)NC1CCC1	4	-2
C[C@@H]1CN([C@H](C)CO)C(=O)c2cccc(NC(=O)C3CCCCC3)c2O[C@@H]1CN(C)C(=O)Nc1ccc(C(F)(F)F)cc1	u	x
CC(C)c1cccc(NC(=O)C[C@H]2CC[C@H]3[C@@H](COc4ccc(NC(=O)c5cnccn5)cc4C(=O)N3C)O2)c1	-30	-15
COc1ccc(NC(=O)N(C)C[C@H]2Oc3ncc(-c4cccnc4)cc3C(=O)N([C@@H](C)CO)C[C@@H]2C)cc1	4	5
CC(C)CC#Cc1ccc2c(c1)O[C@@H](CN(C)S(=O)(=O)c1cccc(F)c1)[C@@H](C)CN([C@@H](C)CO)S2(=O)=O	-18	-23
O=C(C[C@@H]1CC[C@@H]2[C@H](COC[C@H](O)CN2Cc2cc(F)ccc2F)O1)NCc1ccccc1	6	4
COc1ccc(CN2CC3(CCN(C(=O)Cc4ccccc4)CC3)c3c([nH]c4cc(OC)ccc34)[C@H]2CO)cc1	-5	-2
CCCC#Cc1cnc2c(c1)C(=O)N([C@H](C)CO)C[C@H](C)[C@H](CN(C)S(=O)(=O)c1cn(C)cn1)O2	5	7
CN(C)CC(=O)Nc1ccc2c(c1)[C@@H]1C[C@@H](CC(=O)NC3CCCC3)O[C@H](CO)[C@@H]1O2	10	3
C[C@@H]1CN([C@@H](C)CO)S(=O)(=O)c2ccc(C#Cc3ccc(F)cc3)cc2O[C@@H]1CN(C)C(=O)c1ccccn1	u	x
Cc1ccc(-c2cnc3c(c2)C(=O)N([C@H](C)CO)C[C@@H](C)[C@@H](CN(C)CC2CCOCC2)O3)cc1	-26	-22
CC(=O)N(C)C[C@H]1Oc2cc(Br)ccc2S(=O)(=O)N([C@@H](C)CO)C[C@H]1C	20	8
CCCNC(=O)[C@H]1[C@H](CO)[C@H]2Cn3c(ccc(/C=C/c4ccccc4)c3=O)[C@H]2N1CCC	-15	-7
CNC(=O)C[C@H]1CC[C@@H]2[C@H](COC[C@H](O)CN2C(=O)c2ccccn2)O1	3	6
CC(C)NC(=O)Nc1ccc2c(c1)C(=O)N([C@H](C)CO)C[C@H](C)[C@@H](CN(C)C(=O)c1ccccc1)OCCCC[C@@H](C)O2	1	8
CO[C@@H]1CN(C)C(=O)c2ccc(NS(=O)(=O)c3cn(C)cn3)cc2OC[C@H](C)N(CCC(F)(F)F)C[C@H]1C	14	15
COCC(=O)N1CC2(CN(Cc3ccccc3)C2)c2c(n(C)c3cc(OC)ccc23)[C@@H]1CO	-9	-15

An excerpt. The share of hits here may be higher or lower than overall.
